RGS16-Gao HTS: modulates binding between human RGS16 and Galphao; O15492+P09471; hit rate 0.38% among 220,000; binding response (% of control), % at 10 µM; bead-based flow cytometry RGS16-Galphao binding, fluorescence; actives lie on both sides;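 active = below 25% or above 175%, edge rows of some plates excepted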;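 also: Galphao activated by GDP with aluminum fluoride before binding; 100% = wells without compound and 0% = beads without RGS; some results beyond the cut were filed as inactive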
Target sequence (O15492 whole entry, looked up): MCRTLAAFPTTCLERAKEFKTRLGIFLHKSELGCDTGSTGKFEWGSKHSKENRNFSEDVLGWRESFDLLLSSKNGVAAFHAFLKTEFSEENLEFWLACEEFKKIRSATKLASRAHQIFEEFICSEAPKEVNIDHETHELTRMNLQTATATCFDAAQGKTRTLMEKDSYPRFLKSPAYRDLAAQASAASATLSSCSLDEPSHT
Target sequence (P09471 whole entry, looked up): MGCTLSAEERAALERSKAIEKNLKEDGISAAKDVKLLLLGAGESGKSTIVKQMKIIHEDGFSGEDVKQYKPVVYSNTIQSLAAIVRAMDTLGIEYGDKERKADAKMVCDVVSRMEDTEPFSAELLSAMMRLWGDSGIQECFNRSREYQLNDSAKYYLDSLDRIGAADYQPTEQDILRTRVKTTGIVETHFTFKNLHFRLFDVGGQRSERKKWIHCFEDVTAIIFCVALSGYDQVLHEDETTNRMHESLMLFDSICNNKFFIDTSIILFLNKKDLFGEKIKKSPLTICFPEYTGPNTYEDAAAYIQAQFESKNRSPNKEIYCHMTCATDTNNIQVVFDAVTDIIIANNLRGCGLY
PKD1 inh: PKD1 (human) kinase inhibition. AID 797. PKD1 kinase fluorescence polarization assay. inhibition, %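 (about 10 µM by stock and volumes)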. Q15139. hit rate 0.056% among 200,000;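 active = inhibition of 50% or more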;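 also: controls were vehicle for no effect and a reference inhibitor for full effect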
HSV augment: HSV replication enhancement. HSV replication augmentation in cells, fold increase. AID 1956. maximum fold increase. hit rate 0.005% among 220,000;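 active = peak rise of 1.5-fold or more in the series; tested in PC3 cells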;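 also: first round at 10 µM; read as green reporter fluorescence; hits show the peak of a series up to 25 µM; 1 = signal of infected wells without compound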
GALR2 agonist: agonists of human galanin receptor 2 (GALR2); activation, %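 (tested at 5 µM)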; GALR2-expressing cells, agonist activation read-out; hit rate 0.48% among 140,000; AID 803;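 active = above mean plus 3 SD of all compounds, about 5% in these data, not always enough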;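 also: 0% = vehicle buffer wells and 100% = reference agonist at full effect; tested in CHO reporter cells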
Target sequence (O43603 whole entry, looked up): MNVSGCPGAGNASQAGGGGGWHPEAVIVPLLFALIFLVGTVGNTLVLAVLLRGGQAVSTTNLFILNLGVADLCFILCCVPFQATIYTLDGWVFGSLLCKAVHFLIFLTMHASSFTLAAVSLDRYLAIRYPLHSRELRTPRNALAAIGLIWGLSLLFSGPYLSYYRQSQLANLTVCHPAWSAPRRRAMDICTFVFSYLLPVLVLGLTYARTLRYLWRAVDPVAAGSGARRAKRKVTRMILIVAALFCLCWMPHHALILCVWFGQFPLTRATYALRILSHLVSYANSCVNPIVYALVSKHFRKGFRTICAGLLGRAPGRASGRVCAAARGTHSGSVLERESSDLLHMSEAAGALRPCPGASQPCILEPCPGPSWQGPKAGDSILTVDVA
INS promoter inh: TRM-6 insulin promoter activity inhibition; TRM-6 cells (human fetal islet line), insulin promoter-eGFP reporter, imaging; reporter expression induced with tamoxifen; inhibition, % at 2 µM; hit rate 0.9% among 130,000; AID 1273;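 active = inhibition above the mean plus 3 SD, with well images judged a real hit on visual review, cut at about 60% in these data, passing the limit was not always enough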
INS promoter inh cell count: also measured in INS promoter inh; calls as there; normalized cell count, %; measured here: cell count, toxicity; reference of the scale not given here;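 cells exposed to compound for 48 h; stained nuclei by imaging scaled within each plate; lower means fewer cells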
HSV augment primary fold: also measured in HSV augment; calls as there; fold increase; compound at 10 µM; measured here: primary screen fold increase 10 uM; tested in PC3 cells;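 GFP signal in the first replicate; 1 = infected wells without compound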
Active calls of the source: *; i = inactive; . = no result given.

SMILES	RGS16-Gao HTS	PKD1 inh	HSV augment	HSV augment primary fold	GALR2 agonist	INS promoter inh	INS promoter inh cell count
Cc1cc(C)nc(-n2nc(C)c(Br)c2Nc2ccc(Br)cc2)n1	101	-3	i	0.77	-0.8	-29	114
Cn1cc(Br)c(-c2cccc(NC(=O)CCCC(=O)O)c2)n1	103	.	i	1	.	.	.
CCOC(=O)Cc1c(C)nc2c(C#N)c[nH]n2c1=O	95	0	i	1	-3.8	-46	75
Cc1ccc(O)c(CNn2cnnc2)c1	118	9	i	1.2	-1.0	.	.
CCCCn1c(SCC(=O)N2CCC(C)CC2)nc2cc(S(N)(=O)=O)ccc21	107	-5	i	0.98	1.3	.	.
Cc1ccc(C)c(S(=O)(=O)NCc2ccc(C(=O)N3CCCCCC3)cc2)c1	26	-2	i	0.99	-1.6	77*	82*
CCCCOC(=O)Nc1nccs1	100	-2	i	1	-1.6	94*	53*
O=C1c2ccccc2C2=Nc3ccccc3SC(c3ccccc3F)C12 (centres undefined)	96	10	i	0.95	7.0	.	.
Cc1sc(NC(=S)NC(=O)c2ccccc2)c(C#N)c1C	.	-6	i	0.98	-3.8	-356	45
CCOC(=O)CSc1nncc2ccc(OC)c(OC)c12	100	-1	i	0.94	-2.1	.	.
S=C(NCCc1ccccn1)Nc1ccccc1	112	-2	i	0.99	.	7	63
Oc1oc(-c2ccco2)nc1C=Nc1cccc(Cl)c1	i	4	i	0.93	-1.8	.	.
COc1ccccc1-n1cnc2cc(NS(=O)(=O)c3ccccc3)ccc21	87	-8	i	1	-2.1	-1	90
Cc1cc(C)c([N+](=O)[O-])cc1NC(=O)CCS(=O)(=O)c1ccccc1	102	.	i	0.93	.	.	.
C=CCn1c2[n+](c3ccccc3c1=O)CCCCC2	101	-2	i	0.88	.	.	.
CCOc1ccc(CCNc2cc(C)nc3ncnn23)cc1OCC	103	0	.	.	0.2	5	123
CCCSc1nnc(Cc2cc(=O)[nH]c(=O)[nH]2)n1-c1cc(C)ccc1C	99	-1	i	1.1	-1.2	.	.
CSc1ncccc1C(=O)NCC1CCCCC1	102	-1	i	0.88	.	0	168
Fc1ccc(CN2CCCCCCC2)cc1	100	-3	i	0.8	0.9	-29	88
Cc1cccc2cc(C(c3nnnn3CC3CCCO3)N3CCOCC3)c(=O)[nH]c12 (centres undefined)	113	-10	i	0.9	-1.2	.	.
CCn1nc(C(=O)OCC(=O)Nc2nc(-c3ccc(OC)cc3)cs2)c2ccccc2c1=O	47	-3	i	0.96	0.1	10	69
COc1ccccc1CCNC(=O)CSc1nnc2ccc(-c3ccncc3)nn12	100	-5	i	1	.	.	.
COc1ccc(-c2csc(NC(=O)c3ccc(S(C)(=O)=O)cc3)n2)cc1	110	-12	i	1.2	.	.	.
CCC1Oc2ccccc2N(CC(=O)Nc2ccc(OC)cc2OC)C1=O (centres undefined)	102	-12	i	0.8	0.4	-37	86
NNC(=S)NC1CCS(=O)(=O)C1 (centres undefined)	97	.	i	0.98	.	.	.
O=C(CSc1ncnc2nc[nH]c12)c1ccc2ccccc2c1	87	0	i	0.88	-1.8	21	83
COc1cc2nc3occc3c(OC)c2cc1OC	100	4	i	0.77	-0.4	-14	100
COc1ccc(Cl)cc1C(=O)NCC(C)C	103	-9	i	0.93	-0.5	.	.
CC1(C)Cc2c(sc3nc4n(-c5ccccc5)cnn4c(=O)c23)CO1	90	.	i	1	.	.	.
C#CCSc1nnc(CSc2nc3ccccc3s2)n1-c1ccccc1	89	-9	i	0.77	-1.7	-436	62

Retrieved one by one from the list above (six):
SMILES	RGS16-Gao HTS	PKD1 inh	HSV augment	HSV augment primary fold	GALR2 agonist	INS promoter inh	INS promoter inh cell count
COc1ccc(Cl)cc1C(=O)NCC(C)C	103	-9	i	0.93	-0.5	.	.
O=C(CSc1ncnc2nc[nH]c12)c1ccc2ccccc2c1	87	0	i	0.88	-1.8	21	83
CC1(C)Cc2c(sc3nc4n(-c5ccccc5)cnn4c(=O)c23)CO1	90	.	i	1	.	.	.
C#CCSc1nnc(CSc2nc3ccccc3s2)n1-c1ccccc1	89	-9	i	0.77	-1.7	-436	62
COc1cc2nc3occc3c(OC)c2cc1OC	100	4	i	0.77	-0.4	-14	100
NNC(=S)NC1CCS(=O)(=O)C1 (centres undefined)	97	.	i	0.98	.	.	.

The results go on.
SMILES	RGS16-Gao HTS	PKD1 inh	HSV augment	HSV augment primary fold	GALR2 agonist	INS promoter inh	INS promoter inh cell count
CCCCCc1cc(=O)oc2c(C(CCN3CCCCC3)c3ccc4c(c3)OCO4)c(OC)cc(OC)c12 (centres undefined)	102	.	i	0.65	.	.	.
O=C(CSc1ncn[nH]1)c1cccc([N+](=O)[O-])c1	97	-4	i	1	0.7	-17	91
Cc1cccc(NC(=O)Cn2nnc(C(=O)NCc3ccco3)c2N)c1	114	-1	i	0.91	.	-45	146
CS(=O)(=O)N(Cc1ccc(Cl)cc1)c1ccc(C(=O)Nc2cccnc2)cc1	91	-5	i	1.2	-0.1	-49	110
N#CCCN(C(=O)COC(=O)c1ccc2c(c1)NC(=O)CS2)c1ccc2c(c1)OCCO2	109	-2	i	0.89	0.2	.	.
Cn1ncc(Br)c1C(=O)NC1C2CC3CC(C2)CC1C3 (centres undefined)	104	-6	i	1	-2.4	7	41
O=C(NC1CC1)c1ccc2c3c(cccc13)CC2	99	-5	i	0.96	-0.1	17	126
CCCCNC(=O)CS(=O)Cc1nc(-c2cccc(C)c2)oc1C (centres undefined)	103	-11	i	0.9	-1.8	.	.
COc1ccc(-c2noc(CN(Cc3nccn3C)C(C)C)n2)cc1	76	.	i	0.93	.	.	.
CCCC(C)NC(=O)CSc1nc(-c2ccccc2)cn1N (centres undefined)	71	1	i	0.94	.	14	88

Taken from above:
For INS promoter inh cell count, CCOC(=O)Cc1c(C)nc2c(C#N)c[nH]n2c1=O has the entry 75
For PKD1 inh, CCCCn1c(SCC(=O)N2CCC(C)CC2)nc2cc(S(N)(=O)=O)ccc21 has the entry -5
For INS promoter inh, C#CCSc1nnc(CSc2nc3ccccc3s2)n1-c1ccccc1 has the entry -436
For INS promoter inh cell count, O=C(CSc1ncn[nH]1)c1cccc([N+](=O)[O-])c1 has the entry 91
For RGS16-Gao HTS, CCCCCc1cc(=O)oc2c(C(CCN3CCCCC3)c3ccc4c(c3)OCO4)c(OC)cc(OC)c12 (centres undefined) has the entry 102

Other results.
SMILES	RGS16-Gao HTS	PKD1 inh	HSV augment	HSV augment primary fold	GALR2 agonist	INS promoter inh	INS promoter inh cell count
Cc1c(NC(=S)NCc2ccc(F)cc2)cccc1[N+](=O)[O-]	110	-7	i	0.99	0.8	.	.
Cc1ccc2sc(C)[n+](CCCS(=O)(=O)[O-])c2c1	101	-5	i	1	.	29	100
Nc1cc(=O)[nH]c(SCC(=O)NCC2CCCO2)n1 (centres undefined)	106	7	i	0.96	0.4	.	.
COc1ccc(C2SCC(=O)N2c2c(C)n(C)n(-c3ccccc3)c2=O)c(OC)c1 (centres undefined)	97	-5	i	0.67	-3.2	44	85
Cc1ccc2[nH]c(-c3ccccc3)c(CN3CCN(C)CC3)c(=O)c2c1	100	6	i	0.68	-1.3	11	99
c1ccc(N2CCN(c3cnccn3)CC2)nc1	99	-3	i	0.96	-0.9	.	.
C=CCn1c(SCCC#N)nnc1-c1ccncc1	97	3	i	1	-1.1	23	120
Cc1ccc(-n2nnc3c(SCC(=O)N4CCN(c5ccccc5)CC4)ncnc32)cc1	.	0	.	.	-1.4	-11	71
Cc1noc(C)c1S(=O)(=O)N1CCC(C(=O)NCCCN2CC(C)CC(C)C2)CC1 (centres undefined)	100	0	i	1	.	19	131
Nc1c(C(=O)N2CCOCC2)sc2nc3c(cc12)CCC3	105	-7	i	0.98	.	0	113
Cc1ccc([N+](=O)[O-])cc1NC(=O)C(C)NS(=O)(=O)c1ccc(F)cc1 (centres undefined)	98	-3	i	0.91	.	.	.
CCC(C)NC(=O)COC(=O)c1cc([N+](=O)[O-])ccc1Sc1nc(C)cs1 (centres undefined)	97	-11	.	.	-2.1	3	112
C/C(=N\Nc1ccc(C(F)(F)F)cn1)c1ccncc1	106	-4	i	0.99	.	2	160
Cc1n[nH]c(C)c1CCC(=O)N/N=C/C=C/c1ccccc1	105	-9	i	0.92	-0.4	-50	92
CC(C)NC(=O)c1ccccc1-c1ccccc1	126	-4	i	0.83	-2.0	-50	122
CC(C)CNC(=O)c1cccc(C(=O)NCC(C)C)c1	102	0	i	0.9	-2.5	-372	96
S=C(NCc1ccccn1)Nc1ccc(Cl)cc1	69	9	i	0.95	-2.7	17	92
CN1CCN(C(=O)c2cc(COc3c(F)cccc3F)on2)CC1c1ccccc1 (centres undefined)	102	-2	i	0.91	.	-57	111
Cc1cccc(/C(N)=N/OC(=O)c2ccco2)c1	6	-5	i	0.85	-4.6	-13	137
COc1ccccc1Oc1c(C)oc2c(CN3CCN(CCO)CC3)c(O)ccc2c1=O	106	0	.	.	-3.2	14	100
Cc1nc([N+](=O)[O-])nn1C12CC3CC(CC(Cl)(C3)C1)C2	99	4	i	0.99	-1.5	37	93
Clc1ccc(Nc2ccc(Cl)nn2)cc1	101	.	i	0.96	.	.	.
CC(=O)c1cc(-c2ccccc2)n(CCC(=O)NC2CCCCCC2)c1C	102	2	i	0.96	0.3	-6	127
O=S(=O)(NC1CCCCC1N1CCOCC1)c1ccc(Cl)cc1 (centres undefined)	112	3	i	0.91	.	.	.
O=C(N1CCOCC1)N1CCC(NC(=O)C23CC4CC(CC(C4)C2)C3)CC1	103	-3	i	0.84	0.5	42	32
COc1ccc(C2/C=C\CN(CC(C)(C)C)CC(=O)N2Cc2ccc(F)cc2)cc1 (centres undefined)	92	.	i	0.95	.	.	.
O=C(NNc1cc(Cl)cc(Cl)c1)c1cccs1	100	.	i	1.3	.	.	.
O=C(Nc1ccc2c(c1)CCC2)c1cnccn1	51	-7	i	1.1	-0.9	0	84
O=C(Nn1cnnc1)c1ccncc1	100	-3	i	0.86	1.9	50	97
COC(=O)c1cc(=O)n(Cc2ccco2)c(=Nc2ccc(F)c(Cl)c2)s1	92	-25	i	0.55	-0.6	.	.
Cc1ccccc1-n1c(-c2ccncc2)n[nH]c1=S	18*	.	i	0.81	.	.	.
CCOC(=O)C1CCN(Cc2cc(C(C)(C)C)c(O)c(C(C)(C)C)c2)CC1	103	-8	i	0.89	.	57	111
Fc1ccc(Nc2nc(NCc3ccco3)c3ccccc3n2)cc1	95	.	i	0.69	.	.	.
Cc1nc([N+](=O)[O-])c(C(=O)OCc2ccccc2F)n1C	90	1	i	0.83	.	-6	77
COC(=O)Nc1ccc(OC)c(OC)c1	99	-4	i	1	-0.8	61	97
CCC(C)(C)n1nnnc1C(c1ccccc1F)N1CCC(C(N)=O)CC1 (centres undefined)	97	-2	i	0.95	-3.1	6	112
O=S1(=O)N=C2CCCCCN2C(c2ccc(Br)cc2)N1 (centres undefined)	97	3	i	0.93	.	-6	75
O=C(NCCCc1ccccc1)c1ccc(Br)o1	82	-2	i	0.82	-1.1	56	59
Cc1cc(C)n(C/C=C/Cn2nc(C)cc2C)n1	105	-5	i	0.95	-1.6	35	113
Cc1cc(NC2CCCCC2)nc2ccccc12	107	-4	i	0.83	.	.	.
CCOC(=O)c1c(NC(=S)Nc2ccccc2)sc2c1CC(C)(C)SC2	94	-5	i	2	-0.7	-50	94
CC(=O)Oc1ccc2c(=O)c(Oc3ccccc3[N+](=O)[O-])coc2c1	107	17	i	1	-0.7	-20	121
CCOC(=O)c1nc(N)c(C(=O)OCC)[nH]1	100	-3	i	0.9	-0.9	32	217
CCOC(=O)N1CCN(CC(=O)Nc2cc3c(cc2C(C)=O)OCO3)CC1	101	-14	i	1	-1.1	.	.
Cc1ccc(S(=O)(=O)N(C)CCCC(=O)Nc2ccc(C)cc2C)cc1	105	-6	i	0.94	-0.8	20	102
Cc1ccc(-n2c3c(c(O)c(-c4ccccc4)c2=O)C(=O)CC(C)(C)C3)cc1	98	-8	i	1	-0.9	.	.
O=C(NCc1ccc2c(c1)OCO2)c1ccc(=O)[nH]c1	104	1	i	0.98	-1.4	6	97
O=C(O)Cn1nc(-c2ccccc2)c2ccccc2c1=O	99	0	i	0.85	-3.4	.	.
CCNC(=S)N=Nc1c(O)[nH]c2ccc([N+](=O)[O-])cc12	98	-5	i	1	.	.	.
O=C(CSc1nnc(-c2ccco2)n1-c1ccccc1)N1CCOCC1	109	-8	i	0.99	-0.7	-3	64
CCCCCC(=O)Nc1ccc(C(=O)N/N=C/c2ccc([N+](=O)[O-])cc2)cc1	97	-5	i	0.55	1.8	-7	114
Cc1ccc(/C=N/NC(=O)c2nn(C)cc2Cl)cc1	107	4	i	1	0.0	37	59
Cc1cc(C)n(CC(O)CN(c2ccccc2)S(=O)(=O)c2ccc3ccccc3c2)n1 (centres undefined)	-6.5*	-1	i	0.85	-2.1	4	83

Random draw from the library. About 1.3% of those tested had a hit in this group.
